# AID504770: growth inhibitors of E. coli YBA685 in a screen for V. cholerae RctB (chromosome II replication) inhibitors; E. coli YBA685 rctB-dependent plasmid, OD600 growth, 3 h; stronger effect = lower value; z-score (concentration not given with the values); 0.27% of 130,000 active; AID 504770;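 active means z-score under -2 on both plates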;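 further: wells of about 30 µL received 100 nL stock; score is relative to mean and SD of the test wells; the first replicate is given; strong numbers were not always called active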
# Ba CapD inh: inhibitors of Bacillus anthracis CapD enzyme; AID 492967; purified CapD enzyme, fluorescence intensity read-out; stronger effect = lower value; some hits fall short of the stated cut; 0.23% of 140,000 active; z-score (no concentration beside the values);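 active means z-score under -4 in either of two replicates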;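 further: stock transfer was 100 nL into about 40 µL; score is relative to mean and spread of the plate; one replicate is shown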
# An asterisk follows results filed as active; . = no result given. Random draw from the library; any-hit rate near 0.37%.
Compound | AID504770 | Ba CapD inh
COC(=O)CCC(=O)Nc1ccc(-c2nc3ccc(C)cc3s2)cc1 | 2.9 | 6.7
N#Cc1c(N)nc2c(c1-c1ccc(Br)s1)CCCC2 | 0.25 | 0.22
COCCn1c(C)cc(C(=O)COC(=O)c2cc(-c3ccco3)nc3ccccc23)c1C | 0.3 | .
NS(=O)(=O)c1ccc(N=NSCCO)cc1 | -1.4 | .
Cc1ccc(S(=O)(=O)NCC(=O)NC2CCCCCC2)cc1 | 0.2 | 0.28
CNc1ccnc(C(=O)O)c1 | -0.6 | .
COc1ccc(CCN2C(=O)NC(=O)C(CCc3ccncc3)(CCc3ccncc3)C2=O)cc1OC | 0 | 0.54
CCCCc1c(COC)nc(SC)[nH]c1=O | -1.2 | -0.58
CC12CCC3(C)OCC(COC(=O)NS(=O)(=O)c4ccccc4)(CO1)N23 (stereo not drawn) | -0.85 | .
CCOc1ccc(NC(=O)c2ccc(SC)cc2OC)cc1 | 2.2 | 0.95
CCOC(=O)c1c(C)[nH]c(C(=O)CC#N)c1C | 0.25 | -1.6
CN[C@H](CC(=O)O)C(=O)O | -0.1 | 0.055
COc1cc(C=C2C(=O)NC(=O)NC2=O)cc(Br)c1OCC(C)C | . | 0.55
O=C(NCC1COc2ccccc2O1)c1ccc(Cl)cc1 (stereo not drawn) | 0.2 | 0.59
NC(=O)c1ccc(-n2ccnc2)cc1 | 3.1 | -0.31

# An excerpt from further up, as a working copy:
Compound | AID504770 | Ba CapD inh
COC(=O)CCC(=O)Nc1ccc(-c2nc3ccc(C)cc3s2)cc1 | 2.9 | 6.7
N#Cc1c(N)nc2c(c1-c1ccc(Br)s1)CCCC2 | 0.25 | 0.22

# (continued)
Compound | AID504770 | Ba CapD inh
Cc1ccc2nc(NC(=O)C3CCCN(S(=O)(=O)c4ccc5c(c4)oc(=O)n5C)C3)sc2c1 (stereo not drawn) | 1.6 | 3.2
O=C(NN1CC(=O)N(CCc2ccccc2)C1=O)c1cccnc1 | 0.1 | .
O=C1NC(=O)C(=Cc2cn(Cc3ccccc3)c3ccccc23)C(=O)N1 | -0.4 | -0.02
Cc1cccc(C)c1OCCCn1ccnc1 | 0.2 | 0.24
O=C1S/C(=C\c2ccc(N3CCOCC3)o2)C(=O)N1c1ccccc1 | 1.7 | -1.4
Cc1nnc(-c2ccc(-c3ccccc3)cc2)o1 | 0.9 | -0.41
CC(C)(C)S(=O)(=O)/C(C#N)=C/c1ccc(F)c(Cl)c1 | 0.5 | -0.92
COC(=O)c1sc2nc(-c3ccc(Cl)cc3)c(S(C)(=O)=O)cc2c1N | . | -0.66
CC1CN(C2=NCCN2S(=O)(=O)c2cc(C(F)(F)F)cc(C(F)(F)F)c2)CC(C)O1 (stereo not drawn) | -0.7 | 1.1
CCOC(=O)C1CCCN(C(=O)COc2ccc(N(C)S(=O)(=O)c3ccc(F)cc3)cc2)C1 (stereo not drawn) | 0.2 | .
COc1cc(C(=O)N/N=C/c2cc3ccccc3o2)cc(OC)c1OC | . | 1.4
O=C1NC(C(=O)O)Cc2ccccc21 (stereo not drawn) | -0.8 | .
CCOC(=O)C1=C(C)Nc2nnnn2C1c1cccnc1 (stereo not drawn) | . | -0.51
Cc1nc(N2CCCCC2C)c2c(C)c(C(=O)Nc3ccc(F)cc3)sc2n1 (stereo not drawn) | . | 0.79
Cc1cc(C(=O)COC(=O)c2cc(S(C)(=O)=O)ccc2Cl)c(C)n1C | 1.1 | .

# Whole records, looked up by structure.
# `COc1cc(C(=O)N/N=C/c2cc3ccccc3o2)cc(OC)c1OC` is listed as AID504770 = .; Ba CapD inh = 1.4
# `CCOC(=O)C1CCCN(C(=O)COc2ccc(N(C)S(=O)(=O)c3ccc(F)cc3)cc2)C1` (stereo not drawn) is listed as AID504770 = 0.2; Ba CapD inh = .
# `O=C(NN1CC(=O)N(CCc2ccccc2)C1=O)c1cccnc1` is listed as AID504770 = 0.1; Ba CapD inh = .

# Going on with the list:
Compound | AID504770 | Ba CapD inh
CCN=C1S/C(=C/c2sccc2C)C(=O)N1CC | 0.35 | -1.6
CC1=C(C(=O)Nc2ccc(Br)cn2)C(c2ccc3c(c2)OCO3)C2=C(CCCC2=O)N1 (stereo not drawn) | . | 50
CCN(CC(=O)Nc1ccccc1)c1ccccc1 | 0.55 | 0.075
O=C(O)CSc1nc2ccccc2n1-c1ccccc1 | . | -0.21
CN(C)S(=O)(=O)c1ccc(C(=O)NCc2n[nH]c(=O)c3ccccc23)cc1 | 2.8 | .
CCn1c(=N)n(CC(=O)c2ccc(-c3ccccc3)cc2)c2ccccc21 | 1.5 | 8.3
CCCN1CCC(N(C(=O)c2ccco2)C2CC2)CC1 | . | -0.65
Cc1ccnc(NC(=O)c2sc3cc(Cl)ccc3c2Cl)c1 | 0.4 | 0.9
CC(C)CCN1C(=O)c2ccc(-c3nc4ccccc4c(=O)o3)cc2C1=O | -1.4 | 0.55
O=C1C=C(/C=C/c2cccs2)C[C@H](c2cccs2)[C@H]1n1cnc([N+](=O)[O-])n1 | . | 5.8
O=C(Sc1ccc(Cl)cc1)c1cnc2n(c1=O)CCS2 | 1.9 | -0.96
O=C(NCC(c1cccnc1)N1CCOCC1)C1CCCCC1 (stereo not drawn) | -0.85 | 0.095
CCCCNC(=O)CSc1nc2ccccc2nc1Cc1cccc([N+](=O)[O-])c1 | . | 0.45
CN(C)CCCNC(=O)N1c2ccccc2C=Cc2ccccc21 | . | 0.28
Cc1cc(C)nc(Nc2nc(=O)c3ccccc3s2)n1 | -0.7 | -0.73

# Additional compounds follow:
# Every second line gives: AID504770	Ba CapD inh
CC(C)(C)C(=O)OCC(=O)c1cc(C(F)(F)F)cc(C(F)(F)F)c1
  0.3	0.04
O=C(Cn1nc(-c2ccco2)ccc1=O)Nc1ccccc1Cl
  0.8	.
O=S(=O)(c1ccc(Cl)c2ccccc12)N1CCCC1
  0.35	.
CC(C)CN(C(=O)CSc1nc2ccccc2[nH]1)c1c(N)n(CC(C)C)c(=O)[nH]c1=O
  -1.4	.
CCN1/C(=C2\C(=O)N(c3ccccc3)N=C2C)C=Cc2ccccc21
  -0.95	40
Clc1ccc(Sc2nnc(Cc3ccccc3)c3ccccc23)cc1
  .	-0.07
COCc1c(Br)c(C)nc2sc3c(=O)[nH]nnc3c12
  -0.15	0.72
CCCCn1c(=O)[nH]c(=O)c2c1nc(CN1CCN(S(=O)(=O)c3ccccc3)CC1)n2CC
  0.7	.
CCC(C)C(C(=O)O)N1C(=O)NC2NC(=O)NC21 (stereo not drawn)
  .	-0.52
O=C(O)c1ccc2nc(-c3ccc(-c4ccccc4)cc3)c(-c3ccc(-c4ccccc4)cc3)nc2c1
  .	-0.27
CSc1sc(C(=O)NNC(=O)CCNC(=O)OC(C)(C)C)c2c1C1(CCC2)SCCS1
  .	0.15
CC(=O)N(C(C)=O)N1C(=O)c2cccc3c(N4CCOCC4)ccc(c23)C1=O
  -0.35	-4.3
COC(=O)c1cc(Cl)c(NC(=O)c2ccco2)cc1OC
  -0.1	-0.025
COC(=O)C1Cc2ccccc2CN1Cn1c(SC)nc2ccccc21 (stereo not drawn)
  -1	.
CCOc1ccc(CNC(=O)C2CCCN(c3nnc(-n4cccc4)s3)C2)cc1 (stereo not drawn)
  0.25	-0.27
Cc1[nH]c(-c2ccc(F)cc2)cc1C(=O)NC1CCCC1
  1.8	-0.66
COc1ccc2c(Cl)c(-c3nnco3)sc2c1
  1.1	.
Cc1ccc(C2=NN(C(=O)CCC(=O)O)C(c3ccc(Br)cc3)C2)cc1 (stereo not drawn)
  .	0.68
O=C(O)COCC(=O)NC1Cc2ccccc2C1
  -1.2	-0.98
COc1ccccc1N1CCN(S(=O)(=O)c2ccc(S(=O)(=O)NC3CCCC3)cc2)CC1
  -0.4	.
COc1ccc(NC(=O)CCCn2c(=O)c3sccc3n(CC(=O)c3ccccc3)c2=O)cc1
  -0.15	-0.3
O=C(O)CCn1cc(C(=O)O)c(-c2ccccc2)n1
  -0.2	.
O=C(NCc1ccco1)c1ccc(S(=O)(=O)N2CCCc3ccccc32)cc1
  -0.25	.
COc1ccc(C(CC(=O)O)c2ccc(OC)c(OC)c2)cc1OC
  0.05	0.44
CC(C)(C)c1cn2ccc3ccccc3c2n1
  0.3	.
O=C(O)c1cc2ccc3ccccc3c2s1
  -0.4	2.2
COc1ccc(C2CC(C(F)(F)F)n3nc(C(=O)Nc4cccnc4Cl)c(Cl)c3N2)cc1OC (stereo not drawn)
  .	-0.55
Cc1cnc(NC(=O)C2CCCC2)s1
  -0.55	.
CC(=O)Nc1ccc(N2CCN(C(C)=O)CC2)cc1
  -0.9	0.34
COc1ccc(N2CCN(CCCNC(=O)/C=C3\Sc4ccccc4NC3=O)CC2)cc1
  -0.95	0.24
CCOC(=O)C1=C(N)Oc2c(c(=O)[nH]c3ccccc23)C12C(=O)Nc1ccccc12 (stereo not drawn)
  -0.1	.
COCCCn1nnnc1SCC(=O)Nc1ccccc1
  -0.1	.
O=c1[nH]nc(SCc2ccccc2)c(=O)[nH]1
  0.05	.
O=C(Nc1ccccc1C(=O)Nc1ccc(F)cc1)c1ccco1
  0	0.15
O=C(NCc1noc2ccccc12)N1CCc2ccccc21
  -0.7	-0.78
O=C(CCN1C(=O)C2C3C=CC(C3)C2C1=O)Nc1cccnc1 (stereo not drawn)
  -0.4	-0.18
COc1cc2cc(OCc3c(F)cccc3Cl)nc(C)c2cc1OC
  0.35	39
CCOC(=O)c1cc2ccc(OC(=O)c3ccco3)cc2oc1=O
  -0.45	63
CCC(CC)NCc1oc2ccc(Cl)cc2c1-c1ccc(OC)cc1
  -0.65	-1.4
CCOc1[nH]n(-c2ccc(Cl)cc2)c(=O)c1C=Nc1ccc(F)cc1F
  .	-0.99
O=c1[nH]c(=S)sc2ccccc12
  0	.
Cc1ccc(NC(=O)CC2COc3ccccc3O2)cc1C (stereo not drawn)
  -0.45	-0.65
Cc1cc(NC(=O)C(Cl)(Cl)Cl)n(-c2ccccc2)n1
  .	0.11
O=C(c1ccc([N+](=O)[O-])cc1)c1cc2c(cc1Br)OCCO2
  .	-1
CC(=O)N1CCC(c2nc(-c3ccc(C(F)(F)F)cc3)no2)CC1
  -0.4	-0.2

# Given as labelled records: part of the list above.
CCOC(=O)C1=C(N)Oc2c(c(=O)[nH]c3ccccc23)C12C(=O)Nc1ccccc12 (stereo not drawn)
  AID504770: -0.1 | Ba CapD inh: .

COCCCn1nnnc1SCC(=O)Nc1ccccc1
  AID504770: -0.1 | Ba CapD inh: .

# Next compounds.
# Every second line gives: AID504770	Ba CapD inh
O=C1NCCc2c1[nH]c1ccc(OCc3ccccc3)cc21
  .	55
CC(=O)N1CCc2cc(NS(=O)(=O)c3ccccc3S(C)(=O)=O)ccc21
  .	-0.66
CC1(C)CC2CC(C)(CN2c2nc(N)c(C#N)c(CC#N)c2C#N)C1 (stereo not drawn)
  -0.15	.
COC(=O)C(C)Oc1ccc2c(-c3ccccc3)cc(=O)oc2c1 (stereo not drawn)
  -1.6	3.5
Cc1cccc2c1cnn2C(=O)Nc1cc(F)ccc1F
  -0.1	0.41
CCOC(=O)c1cn(S(=O)(=O)c2ccc(F)cc2F)nc1C(F)(F)F
  0.5	1.4
Cc1ccc(-c2nnc(Nc3ccc(O)cc3)c3ccccc23)cc1S(=O)(=O)N(C)C
  -1.1	8.7
COC(=O)c1ccc(-c2ccco2)n1CC(=O)N1CCC(C(N)=O)CC1
  -1.3	0.59
N#CC(C#N)=C1CCN(c2ncc(C(F)(F)F)cc2Cl)CC1
  -0.1	0.03
CC(NCc1ccccc1)C(=O)Nc1ccccc1 (stereo not drawn)
  -0.45	.
COc1ccc(CCCOC(=O)NNC(=O)c2cccs2)cc1
  .	-0.04
CCOC(=O)N1CCc2c(sc(NC(=O)c3ccc(S(=O)(=O)N(CC)CC)cc3)c2C(N)=O)C1
  -0.3	-0.28
CCN(CC)C(=O)c1cc(-c2ccc(Br)cc2)nc2ccccc12
  .	0.64
COc1ccc(-c2c(C)c3cc(Cl)c(O)cc3oc2=O)cc1OC
  0.9	32
OC(CNCc1ccccc1)C12CC3CC(CC(C3)C1)C2 (stereo not drawn)
  1.5	-0.98
COC(=O)c1sc(NC(=O)Cn2cnc3sccc3c2=O)c(C(=O)OC)c1C
  0.15	.
Cc1nc2c(C(=O)N(C)Cc3ccco3)c[nH]n2c(=O)c1Cc1ccccc1F
  -0.4	3.5
CCOc1ccccc1CNC(=O)Cn1ncc2c([nH]c3ccccc32)c1=O
  1.1	0.04
C=CCSc1nccc(-c2sc3ccc(Cl)cc3c2C)n1
  0.45	6.3
COc1ccc(NC(=O)c2ccccc2C(=O)N2CCCCC2)cc1
  -0.7	.
Cc1ccc(N2Cc3ccccc3C2)cc1C
  -0.85	-0.21
CNC(=O)CN1CCCC(c2nc3ccccc3[nH]2)C1 (stereo not drawn)
  -1.4	.
CCOc1ccc2nc(SC3CC(=O)N(c4ccc(OC)c(OC)c4)C3=O)sc2c1 (stereo not drawn)
  .	0.19
O=c1ncn(Cc2cccs2)cc1-c1ccccc1
  -0.8	-0.23
CCOC(=O)c1cnc(-c2ccccc2)[nH]c1=O
  -1	-0.1
O=C(O)C(Cc1ccccc1)NC(=O)C(c1ccccc1)c1ccccc1 (stereo not drawn)
  0.05	-0.21
COc1ccc(-c2cn3c4c(=O)n(C)c(=O)n(C)c4nc3n2CCCO)cc1
  0.25	-0.36
COc1ccc(-c2nc3c4ccccc4c4ccccc4c3[nH]2)c(OC)c1
  .	42
c1ccc2c(c1)ccc1nnc(-c3ccc4c(c3)OCO4)n12
  .	-0.085
O/N=C/c1ccccc1C(F)(F)F
  0.05	.
O=[N+]([O-])c1ccc2c(c1)C=C1CCCCC1(NC1CCCCC1)O2 (stereo not drawn)
  .	0.26
CCc1ccc(C2C3=C(Nc4c2c(=O)n(C)c(=O)n4C)c2ccccc2C3=O)cc1 (stereo not drawn)
  1.9	0.095
O=C1OC(c2ccco2)=N/C1=C1/C=C(c2cccs2)Oc2ccccc21
  -0.35	-0.26
CC(C(=O)NN)n1nnc(N2CCOCC2)n1 (stereo not drawn)
  .	0.21
